High-throughput results as filed in PubChem BioAssay.
ClpP mod = qHTS Assay for Activators of ClpP; Potency, µM (doses to about 57.5 µM), inactives show at the highest dose activity change, negative = active; 340,000 tested, 1.9% active; ATP-dependent Clp protease proteolytic subunit (Bacillus subtilis (strain 168)), P80244; AID 651965, 2013; purified B. subtilis ClpP, FRET peptide cleavage, 20 min; active = well fitted falling curve with a large enough effect; inconclusive = small, poorly fitted or top-dose-only effect; inactive = no such curve, though single readings can be large or run the other way; further: potency means the concentration at half of the fitted maximal effect; the source files actives as falling curves though it sought activators and does not explain the sign; nearly all actives have a fitted effect of over 65% in size; many hits overshoot -100%
Target sequence (P80244 whole entry, looked up): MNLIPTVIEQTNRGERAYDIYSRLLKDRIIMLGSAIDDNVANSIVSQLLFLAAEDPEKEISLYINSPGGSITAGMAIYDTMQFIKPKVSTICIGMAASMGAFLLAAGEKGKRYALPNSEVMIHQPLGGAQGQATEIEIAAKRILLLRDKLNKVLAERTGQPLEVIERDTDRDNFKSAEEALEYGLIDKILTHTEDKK
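FRET quenching reversal measured ClpP activation: 10 microg/mL B. subtilis ClpP at pH 8 with the FRET-FV decapeptide, read at 430 nm after 320 nm excitation. The 20-min minus 0-min signal was scaled between DMSO/no-enzyme wells and ADEP (5.8 microM final).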
gsp antag = gsp mutant antagonism. gsp-mutant cells, cAMP HTRF, 30 min; control for the full effect not named in the record. Potency, µM (top dose mostly 76.9 µM), for inactives: at the top dose activity change, negative = inhibition, most hits filed as inhibitors. 340,000 tested, 0.4% active; active = falling curve of any shape with a large fitted effect; inconclusive = falling curve, mostly with a smaller effect; inactive = flat or rising curve; cell line not stated here;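 further: intracellular cAMP measured with PDE inhibitor Ro 20-1724 present during compound exposure; potency means the concentration at half of the fitted maximal effect; on the % scale 0 is the no-effect control and ±100 the full control effect; nearly all actives have a fitted effect of over 65% in size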
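Cells in G418 medium, seeded 16-24 h, 37C; buffer exchange to DPBS + 1 mM CaCl2, 0.5 mM MgCl2, 0.05% BSA; cpds in DMSO + […] (300 uM stock), 30 min 37C; HTRF cAMP detection.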
TRPML1 inh = blocks the human TRPML1 channel; TRPML1-inducible cells, Ca2+ dye fluorescence, FDSS; hits give low values; inhibition of EC80 agonist-evoked calcium signal; activity change, negative = inhibition, % (no concentration beside the values); 390,000 tested, 0.02% active; in the data active means activity change below about -50%; inconclusive means about -30% to -50%; inactive means above about -30%;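 further: stimulus is agonist 54-4 at its EC80 concentration; on the % scale 0 is the no-effect control and ±100 the full control effect; compound concentration not given in the record; the text of the record puts the active cut at -80%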
Target sequence (Q9GZU1 whole entry, looked up): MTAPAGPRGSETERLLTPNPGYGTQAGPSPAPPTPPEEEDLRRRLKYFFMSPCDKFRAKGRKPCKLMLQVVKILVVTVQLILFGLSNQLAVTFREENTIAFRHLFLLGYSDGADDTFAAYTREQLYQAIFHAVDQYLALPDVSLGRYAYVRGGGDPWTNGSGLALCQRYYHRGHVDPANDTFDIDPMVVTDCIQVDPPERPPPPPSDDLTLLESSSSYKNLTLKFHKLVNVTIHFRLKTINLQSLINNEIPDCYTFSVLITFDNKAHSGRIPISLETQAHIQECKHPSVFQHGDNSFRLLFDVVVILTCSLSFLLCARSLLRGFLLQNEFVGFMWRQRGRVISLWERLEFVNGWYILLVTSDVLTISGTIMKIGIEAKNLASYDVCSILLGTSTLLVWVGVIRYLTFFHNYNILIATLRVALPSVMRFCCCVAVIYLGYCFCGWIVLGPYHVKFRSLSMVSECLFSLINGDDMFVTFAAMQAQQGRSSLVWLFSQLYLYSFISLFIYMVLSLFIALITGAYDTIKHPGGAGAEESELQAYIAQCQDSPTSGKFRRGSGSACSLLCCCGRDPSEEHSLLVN
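TRPML1-DL cells, Tet-induced overnight (~16 h, 37 °C) at 1,500 cells/well, were loaded with Ca8 no-wash dye plus quencher for 45-90 min at room temperature. Compounds were pinned during FDSS kinetic reading; agonist 54-4 at EC80 (4 uM final) then added.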
Sfp PPTase inh = blocks B. subtilis Sfp PPTase activity; Q9F4F7; Biochemical Sfp PPTase activity, qHTS; Potency, µM, without a hit: max response, negative = inhibition, actives largely listed as inhibitors; 310,000 tested, 3.5% active; active means well fitted inhibition curve with a large enough effect; inconclusive means small, poorly fitted or top-dose-only effect, or another doubt; inactive means no such curve, though single readings can be large or run the other way;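 further: the enzyme is Sfp with the accession as filed and its product quenches rhodamine fluorescence; potency means the concentration at half of the fitted maximal effect; 0% = enzyme reaction without inhibitor and -100% = no enzyme wells; top concentration of the series not given in the record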
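Buffer: 50 mM Hepes-Na pH 7.6, 10 mM MgCl2, 0.01% Nonidet P-40, 0.01% BSA. Enzyme 15 nM, pre-exposed to compound 15 min; substrates then added and fluorescence change tracked over 30 min.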
Menin-MLL FL inh = displaces fluorescein MLL peptide from human menin; 290,000 tested, under 10 active; FP activity change, % at 61.4 µM; Fluorescence polarization, fluorescein-MLL peptide displacement from menin; inconclusive = falling polarisation curve, or a change in total fluorescence; inactive = total fluorescence flat and polarisation flat or rising; no compound was filed as active; the % refers to the polarisation; negative = inhibition;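 further: % of control where 0% means no effect; inhibitors lower the polarisation; unlabelled MLL peptide was the positive control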
TRPV1 potentiator = enhances activation of the human vanilloid receptor TRPV1. 320,000 tested, 0.02% active. AID 540277. Q8NER1. TRPV1-expressing cells, Fluo-8 calcium influx, capsaicin EC20 potentiation; host cell line not named in the record; control for the full effect not named in the record. potentiation, % at 8.33 µM; active means potentiation above 80%; inconclusive means 30% to 80%; inactive means below 30%; further: 0% is about no effect
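TRPV1-expressing cells were cultured overnight at 35.5C and loaded with Fluo-8 calcium dye for 40 to 90 min at room temperature. After a 10 s baseline, compound was added and calcium influx was read kinetically for 3 min (ex 480/em 520 nm).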
gsp ag = gsp mutant agonism; gsp mutant cells, cAMP HTRF, 30 min; control for the full effect not named in the record; Potency, µM (doses to about 76.9 µM), for inactives: top-dose activation (cAMP increase), usual class: activators; 340,000 tested, 0.13% active; active = well fitted activation curve with a large enough effect; inconclusive = small, poorly fitted or top-dose-only effect, or another doubt; inactive = no such curve, though single readings can be large or run the other way; cell line not stated here;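 further: phosphodiesterase inhibitor Ro 20-1724 added with compounds to block cAMP breakdown; potency means the concentration at half of the fitted maximal effect; nearly all actives have a fitted effect of over 60% in size; about a fifth of the inactives were tested at one dose only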
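Cells stably selected in G418 were plated at 2000/well, grown 16-24 hr, then given compounds in DMSO with the PDE inhibitor […] (300 uM solution added) for 30 min at 37C; cAMP was read by HTRF.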
An asterisk follows results filed as active; ? = inconclusive; . = no result given; [ ] = dose if it differs, or a comment. Rows were taken by chance; any-hit rate near 4.9%.

cpd	molecule	ClpP mod	gsp antag	TRPML1 inh	Sfp PPTase inh	Menin-MLL FL inh	TRPV1 potentiator	gsp ag
1	COc1cc(C2NC(=O)NC(C)=C2C(=O)OC(C)(C)C)ccc1OCC(N)=O (centres undefined)	-0.3%	-1%	57	19%	1.0	-3	12%
2	COc1ccc(/C=C/C(=O)c2cc(Cl)cc(Cl)c2O)c(OC)c1	.	-9%	1	14%	7.7	8	-5%[15.4 µM]
3	COc1ccc(/C=N/Nc2nc(NCc3ccco3)nc(Nc3ccc(OC)cc3)n2)cc1	1.0%	-5%	-4	15%	6.5	-14	-3%
4	N=NC(=O)c1ccccc1Nc1c(O)[nH]c2ccccc12	-2.4%	-1%	12	.	.	.	-4%
5	COc1ccc(NC(=O)c2ccccc2NC(=O)C2CCCCC2C(=O)O)cc1 (centres undefined)	-4.5%	-7%	42	.	.	.	-34%[inhibitor]
6	CCOc1ccc(C2C(C#N)=C(N)Oc3cc(C)n(Cc4ccco4)c(=O)c32)cc1OC (centres undefined)	2.0%	1%	-10	-17%	4.3	0	17%
7	O=C(C1CCN(Cc2ccc(Cl)cc2)CC1)N1CCN(Cc2ccc3c(c2)OCO3)CC1	1.6%	-8%	4	?	.	-31	?
8	O=C(/C=C/c1cccc([N+](=O)[O-])c1)n1cnc2ccccc21	.	-8%	-7	3%	-1.7	-5	-3%
9	O=C(O)CCC(=O)Nc1sc2c(c1C(=O)NC1CCCC1)CCCC2	-6.0%	-7%	-3	14%	.	20	-31%[inhibitor]
10	CC(C)(C)NC(=O)c1ccc2c(c1)C(=O)N(Cc1ccco1)C2=O	-2.7%	1%	-25	-1%	5.7	-18	-14%

Part of the list above with just gsp antag, TRPV1 potentiator and gsp ag:
nr	SMILES	gsp antag	TRPV1 potentiator	gsp ag
1	COc1cc(C2NC(=O)NC(C)=C2C(=O)OC(C)(C)C)ccc1OCC(N)=O (centres undefined)	-1%	-3	12%
2	COc1ccc(/C=C/C(=O)c2cc(Cl)cc(Cl)c2O)c(OC)c1	-9%	8	-5%[15.4 µM]
3	COc1ccc(/C=N/Nc2nc(NCc3ccco3)nc(Nc3ccc(OC)cc3)n2)cc1	-5%	-14	-3%
4	N=NC(=O)c1ccccc1Nc1c(O)[nH]c2ccccc12	-1%	.	-4%
5	COc1ccc(NC(=O)c2ccccc2NC(=O)C2CCCCC2C(=O)O)cc1 (centres undefined)	-7%	.	-34%[inhibitor]
6	CCOc1ccc(C2C(C#N)=C(N)Oc3cc(C)n(Cc4ccco4)c(=O)c32)cc1OC (centres undefined)	1%	0	17%

Down the list, from the results shown.
ClpP mod for entries 6–10, in order: 2.0%, 1.6%, ., -6.0%, -2.7%

Following part.
cpd	molecule	ClpP mod	gsp antag	TRPML1 inh	Sfp PPTase inh	Menin-MLL FL inh	TRPV1 potentiator	gsp ag
11	CCN1CCCC1CNC(=O)c1ccccc1Cl (centres undefined)	-3.4%	-9%	-9	18%	0.1	-2	17%
12	COc1ccc(CNC(=O)CN2CCN(c3ccc(F)cc3)CC2)cc1	-5.5%	9%	16	-2%	18	-9	-49%[inhibitor]
13	Cn1nc(CC#N)c2c(=N)n(N)cnc21	-2.3%	7%	-18	.	.	.	22%[15.4 µM]
14	COc1ccc(C(CNC(=O)C(CCSC)NC(=O)c2ccccc2Cl)N2CCOCC2)cc1 (centres undefined)	0.7%	-11%	-9	.	.	4	15%
15	Cc1cc(C)c2cc3c(ccn3C3OC[C@H](O)[C@H](O)[C@H]3O)cc2n1 (some centres undefined)	-4.3%	-3%	5	5%	?	-26	7%
16	COc1ccc2oc(-c3ccco3)cc(=O)c2c1	4.3%	-22%	.	?	5.0	-12	?
17	CC(=O)NS(=O)(=O)c1cccnc1Nc1cccc(Cl)c1C	1.4%	11%	27	9%	1.0	6	-22%
18	O=C(CSc1nnc(C2CC2)n1-c1ccccc1)Nc1ccc(N2CCOCC2)cc1	0.4%	-12%	-8	-7%	1.5	-6	-11%
19	Nc1ccc(O)cc1C(=O)OCC(=O)C12CC3CC(CC(C3)C1)C2	22µM*	-11%	-4	-1%	23	-1	-1%
20	COC(=O)c1ccc(/C=N/NC(=O)CC(=O)NCC(C)C)cc1	-2.4%	-12%	-14	-9%	1.7	-4	-2%

Part of the list above, set out differently:
The line under a structure holds: ClpP mod, gsp antag, TRPML1 inh, Sfp PPTase inh, Menin-MLL FL inh, TRPV1 potentiator, gsp ag
13) Cn1nc(CC#N)c2c(=N)n(N)cnc21
  -2.3%, 7%, -18, ., ., ., 22%[15.4 µM]
14) COc1ccc(C(CNC(=O)C(CCSC)NC(=O)c2ccccc2Cl)N2CCOCC2)cc1 (centres undefined)
  0.7%, -11%, -9, ., ., 4, 15%
15) Cc1cc(C)c2cc3c(ccn3C3OC[C@H](O)[C@H](O)[C@H]3O)cc2n1 (some centres undefined)
  -4.3%, -3%, 5, 5%, ?, -26, 7%
16) COc1ccc2oc(-c3ccco3)cc(=O)c2c1
  4.3%, -22%, ., ?, 5.0, -12, ?
17) CC(=O)NS(=O)(=O)c1cccnc1Nc1cccc(Cl)c1C
  1.4%, 11%, 27, 9%, 1.0, 6, -22%
18) O=C(CSc1nnc(C2CC2)n1-c1ccccc1)Nc1ccc(N2CCOCC2)cc1
  0.4%, -12%, -8, -7%, 1.5, -6, -11%

Carrying on.
cpd	molecule	ClpP mod	gsp antag	TRPML1 inh	Sfp PPTase inh	Menin-MLL FL inh	TRPV1 potentiator	gsp ag
21	CN(CCc1ccccc1)C1CCCN(S(=O)(=O)c2cccc(F)c2)C1 (centres undefined)	.	0%	7	18%	0.6	1	-63%
22	c1nnc(NC2=NCCCCC2)s1	-1.5%	-3%	6	14%	0.1	7	-19%
23	O=C(O)CCc1nn2c3ccccc3n(Cc3ccccc3)c2nc1=O	.	1%	-3	10%	-2.6	7	3%
24	COc1cccc(CNc2ccc3c(c2)CCC3)c1	-7.1%	-12%	-20	-26%	4.5	-2	?
25	CCN(C(=O)CN1CCCC(C)C1)c1c(N)n(Cc2ccccc2)c(=O)[nH]c1=O (centres undefined)	2.9%	11%	-13	.	.	.	-12%
26	COc1ccc(NC(=O)CN2CCN(CC(=O)Nc3ccc(OC)cc3)CC2)cc1	2.3%	6%	1	5%	2.3	24	21%
27	CC(C)(C)c1cc(CCC(=O)NCCc2ccccn2)cc(C(C)(C)C)c1O	.	-41%	-11	5%	1.3	-19	17%[15.4 µM]
28	Cc1nn(CC(=O)Nc2ccccc2)c(=O)c2ccccc12	-1.4%	13%	12	5%	-0.4	17	-27%
29	Cc1ccc(C(=O)Nc2cc(Cl)ccc2-n2cncn2)o1	.	-4%	6	.	.	-4	-5%[15.4 µM]
30	CCOC(=O)C1CCN(c2ncnc3c2cnn3C)CC1	-2.5%	13%	-12	-8%	-0.2	-11	?

(next part)
cpd	molecule	ClpP mod	gsp antag	TRPML1 inh	Sfp PPTase inh	Menin-MLL FL inh	TRPV1 potentiator	gsp ag
31	CSc1nnc(NC(=O)c2ccc(S(=O)(=O)N3CCOCC3)cc2)s1	-0.3%	-20%	10	6%	-4.3	-4	-1%
32	CN1CCN(C(=S)NC(=O)c2ccc(Br)cc2)CC1	.	12%	-14	?	-2.0	0	-21%
33	COc1ccccc1NC(=O)/C(=C/c1ccncc1)NC(=O)c1ccccc1	.	-10%	-13	16%	-3.7	-3	?
34	Cc1cc(Cl)ccc1N(CC(=O)N=Nc1c(O)[nH]c2ccccc12)S(C)(=O)=O	-0.9%	-26%	-5	-6%	-1.9	2	-41%[inhibitor]
35	CNC(=O)NC(=O)CSc1ccc(NC(C)=O)cc1	0.3%	4%	-3	5%	-2.2	0	-24%
36	O=C(COC(=O)/C=C/c1ccc(F)cc1)NC(=O)NCc1ccccc1	-0.1%	.	17	.	.	.	-27%
37	[O-][N+]12CC[N+]([O-])(CC1)c1ccccc12	0.8%	7%	-3	5%	2.1	-3	-35%[inhibitor]
38	CCOC(=O)N1CCC(=NNC(N)=O)CC1	.	12%	-5	8%	1.3	6	11%
39	CN(C)S(=O)(=O)c1ccc(C(=O)OCC(=O)c2ccc(OC(F)F)cc2OC(F)F)cc1	2.2%	6%	19	9%	1.7	-10	9%
40	COCCn1c(C)cc(C(=O)COC(=O)/C=C/c2cccc(OC)c2)c1C	.	-9%	13	8%	-4.4	1	-1%[15.4 µM]

A few values from the entries so far.
O=C(O)CCc1nn2c3ccccc3n(Cc3ccccc3)c2nc1=O in Sfp PPTase inh reads 10%
COc1ccc2oc(-c3ccco3)cc(=O)c2c1 in ClpP mod reads 4.3%

Further compounds:
cpd	molecule	ClpP mod	gsp antag	TRPML1 inh	Sfp PPTase inh	Menin-MLL FL inh	TRPV1 potentiator	gsp ag
41	Cc1ccc2cc(CN(CC(C)C)C(=O)C3CCCO3)c(=O)[nH]c2c1 (centres undefined)	?	1%	3	-2%	-4.7	8	-24%
42	Cn1nc(-c2ccc(Cl)cc2)c2cc(C(=O)NCCCN3CCOCC3)sc21	4.3%	-6%	35	3%	3.8	.	0%
43	O=C(CCc1nnc2n(Cc3ccc(Cl)cc3)c(=O)c3ccccc3n12)NCCCN1CCOCC1	-5.8%	11%	3	7%	-1.4	-1	-15%
44	Cc1onc(-c2ccccc2)c1C(=O)N(Cc1ccco1)Cc1cccs1	.	?	20	40µM*	-1.1	-30	-44%[inhibitor]
45	Cc1ccc(C(C)C)c(OCC(O)CN2CCN(CCO)CC2)c1 (centres undefined)	1.6%	15%	-6	12%	0.9	17	-12%
46	O=C(O)C1=C[C@@H](C2CCCCC2)C[C@@H](OCCCCO)O1	0.6%	7%	-12	21%	0.2	24	-1%
